AmpC inh no det: Promiscuous and Specific Inhibitors of AmpC Beta-Lactamase (assay without detergent); P00811; AmpC nitrocefin hydrolysis, absorbance 480 nm, no detergent; potencies from a single point are estimates; Potency, µM (titrated, usually from 28.7 µM), for the others: top-dose activity change, negative = inhibition; 71,000 compounds, 1.8% hits; active = falling curve, for most hits resting on a single point; inconclusive = weak or doubtful change; inactive = flat or rising curve; note: % of control where 0% means no effect; about half of the hits show no inhibition at the top dose; a quarter of the inactives give rising signals
Target sequence (P00811 whole entry, looked up): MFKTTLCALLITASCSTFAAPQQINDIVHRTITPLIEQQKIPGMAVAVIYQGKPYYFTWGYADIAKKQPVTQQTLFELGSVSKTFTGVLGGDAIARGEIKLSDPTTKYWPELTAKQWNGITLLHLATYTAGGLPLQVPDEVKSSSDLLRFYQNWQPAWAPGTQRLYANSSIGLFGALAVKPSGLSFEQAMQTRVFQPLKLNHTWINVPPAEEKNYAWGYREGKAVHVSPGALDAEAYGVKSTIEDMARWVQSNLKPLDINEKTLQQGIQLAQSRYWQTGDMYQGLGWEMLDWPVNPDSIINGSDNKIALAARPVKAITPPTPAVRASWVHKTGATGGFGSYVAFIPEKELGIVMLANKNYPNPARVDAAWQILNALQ
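Enzyme, pH 7.0 phosphate. Compound titrations were pre-incubated with AmpC for 15 min at room temperature before nitrocefin (stock 800 uM) addition; product formation was recorded at 480 nm every 20 s for 4 min.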
The depositor's hits bear a star; [ ] = dose if it differs, or a comment. Potency is the fitted concentration of half-maximal effect. Not all compounds are listed; rates above refer to the full screens.

`CCOC(=O)c1[nH]c(COC(=O)CCCOc2ccccc2)c(C(=O)OCC)c1C` gave AmpC inh no det 22.9%.
Cc1ccc(S(=O)(=O)N2CCN(S(=O)(=O)c3ccc4c(c3)OCCO4)CC2)cc1 was read as AmpC inh no det 7.4%.
`COc1ccc(NC(=O)N(C2CCCCC2)C(C)c2cccnc2)c(OC)c1` (stereo not drawn) gave AmpC inh no det 86.5%.
For O=C(Nc1cnn(Cc2ccc(F)cc2)c1)c1cnccn1 the results were AmpC inh no det -13.2%.
O=C(c1ccc(Cn2c(=O)[nH]c3ccccc3c2=O)cc1)N1CCN(c2ccccn2)CC1 was read as AmpC inh no det 64.8%.
`O=C1C2CCCN2C(c2ccccc2)N1c1ccc(F)cc1` (stereo not drawn) gave AmpC inh no det 11.1%.
Cc1[nH]c2ccccc2c(=O)c1CN1CCCCC1 was read as AmpC inh no det -10.4%.
For COc1cccc(N2C(=O)N(c3ccccc3Cl)C3CS(=O)(=O)CC32)c1 (stereo not drawn) the results were AmpC inh no det 12.2%.
Screening CCC(C)c1ccc(NC(=O)c2cccnc2)cc1 (stereo not drawn) returned AmpC inh no det 47.1%.
`CC(C(=O)N1CCCc2c1c(=O)oc1ccc(O)cc21)N1CCc2ccccc2C1` (stereo not drawn) gave AmpC inh no det -6.9%.
O=C(COC(=O)c1ccco1)Nc1nc2ccccc2s1 was read as AmpC inh no det -16.8%.
`O=C(Nc1nnc(CC2=CCCCC2)s1)c1cccs1` gave AmpC inh no det -13.8%.
O=C(Nc1cccc(F)c1)N1CC[C@@]2(CCCN(C(=O)c3cnccn3)C2)C1 was read as AmpC inh no det -9.2%.
For CCC(C)c1c(O)nc(SCc2ccccc2)[nH]c1=O (stereo not drawn) the results were AmpC inh no det -2.9%.
For O=C(O)CCCC(=O)NCCc1cccc(Cl)c1 the results were AmpC inh no det 13.8%.
For Cc1ccc(NC(=O)N2C(=O)C3(OCCO3)c3ccccc32)cc1 the results were AmpC inh no det -13.5%.
O=C(NC1CCCCC1)C1CCCN1C(=O)NCc1ccccc1 (stereo not drawn) was read as AmpC inh no det -7.1%.
`C[C@@H]1C[C@H](OC(=O)c2ccccc2O)CC(C)(C)C1` gave AmpC inh no det -14.0%[12.8 µM].
Screening CC(NS(=O)(=O)c1ccc(OCC(=O)N2CCOCC2)c(Cl)c1)c1ccccc1 (stereo not drawn) returned AmpC inh no det 39.4%.
For Cc1cc(C)n(-c2nc(NCC3CCCO3)c3c4c(sc3n2)COC(C)(C)C4)n1 (stereo not drawn) the results were AmpC inh no det 125.5%.
For O=C(O)C[C@@H](C(=O)O)c1ccccc1[N+](=O)[O-] the results were AmpC inh no det 5.9%[5.75 µM].
For COC(=O)c1[nH]c2ccccc2c1NS(=O)(=O)c1ccc(OC)cc1OC the results were AmpC inh no det 22.3%.
Screening Cc1cc(NCc2ccco2)nc2cc(O)ccc12 returned AmpC inh no det -10.5%.
CC1CCN(CC(=O)Nc2ccccc2C#N)CC1 was read as AmpC inh no det -6.8%.
Screening CCOC(=O)C1CCN(c2c(N3CCN(c4ccccc4OC)CC3)c(=O)c2=O)CC1 returned AmpC inh no det 10.7%.
Screening CCOC(=O)C(C)Sc1nnc(-c2ccccc2O)n1-c1ccc(C)cc1 (stereo not drawn) returned AmpC inh no det 11.4%.
Screening N#Cc1cc2c(nc1SCC(=O)Nc1nccs1)CCCCC2 returned AmpC inh no det -12.0%.
`Cn1c(=O)n(Cc2ccco2)c(=N)c2c3c(sc21)CCC3` gave AmpC inh no det 5.7%.
Screening O=C(Cn1c(=O)n(CCC(=O)N2CCc3ccccc3C2)c(=O)c2ccccc21)NCC1CCCO1 (stereo not drawn) returned AmpC inh no det 53.7%.
`CS(=O)(=O)N1CCC(C(=O)Nc2ccccc2Sc2ccccc2)CC1` gave AmpC inh no det 57.0%.
`Cc1ccccc1Cn1c(=N)n(CC(=O)c2ccco2)c2ccccc21` gave AmpC inh no det 40.5%.
Screening COc1ccc(-c2ccc(-c3noc(-c4ccccc4)n3)c(OC)n2)cc1 returned AmpC inh no det 6.1%.
For O=C(O)[C@H]1[C@H](C(=O)O)[C@H](C(=O)O)C[C@@H]1C(=O)O the results were AmpC inh no det 0.1%[5.75 µM].
CCCc1nc(SCC(=O)Nc2cc(C)on2)c2ccccc2n1 was read as AmpC inh no det -0.3%.
For O=C(Nc1cccnc1)c1c(O)c2c(n(Cc3ccccc3)c1=O)CCCC2 the results were AmpC inh no det 37.7%.
Screening COCC(=O)N(Cc1ccco1)c1nnc(C2CCOC2)s1 (stereo not drawn) returned AmpC inh no det -2.9%.
`COc1ccc(OCc2nnc3n2N=C(c2ccc(Br)cc2)CS3)cc1` gave AmpC inh no det 3.98µM*[single pt active].
O=C(CCn1c(=S)[nH]c2ccccc2c1=O)NCC1CCCO1 (stereo not drawn) was read as AmpC inh no det 4.8%.
COc1ccccc1OCc1nnc(SCC(=O)N2CCCCC2)n1-c1ccccc1 was read as AmpC inh no det 82.2%.
COc1cc(-c2nnc(COC(=O)CSc3cc(C)c4ccccc4n3)o2)cc(OC)c1OC was read as AmpC inh no det 86.7%.

Gathered by group, the entries above with a furan ring, fused or not
O=C(COC(=O)c1ccco1)Nc1nc2ccccc2s1 was read as AmpC inh no det -16.8%.
Screening Cc1cc(NCc2ccco2)nc2cc(O)ccc12 returned AmpC inh no det -10.5%.
`Cn1c(=O)n(Cc2ccco2)c(=N)c2c3c(sc21)CCC3` gave AmpC inh no det 5.7%.
`Cc1ccccc1Cn1c(=N)n(CC(=O)c2ccco2)c2ccccc21` gave AmpC inh no det 40.5%.
Screening COCC(=O)N(Cc1ccco1)c1nnc(C2CCOC2)s1 (stereo not drawn) returned AmpC inh no det -2.9%.

Structures shown so far that have a cyano group, in the order listed:
CC1CCN(CC(=O)Nc2ccccc2C#N)CC1 was read as AmpC inh no det -6.8%.
Screening N#Cc1cc2c(nc1SCC(=O)Nc1nccs1)CCCCC2 returned AmpC inh no det -12.0%.

Back to the main list, starting three compounds before the break.
O=C(CCn1c(=S)[nH]c2ccccc2c1=O)NCC1CCCO1 (stereo not drawn) was read as AmpC inh no det 4.8%.
COc1ccccc1OCc1nnc(SCC(=O)N2CCCCC2)n1-c1ccccc1 was read as AmpC inh no det 82.2%.
COc1cc(-c2nnc(COC(=O)CSc3cc(C)c4ccccc4n3)o2)cc(OC)c1OC was read as AmpC inh no det 86.7%.
Screening COCCn1c(-c2ccco2)nc2nc3ccccc3nc21 returned AmpC inh no det 0.7%.
CCCn1nc(NS(=O)(=O)c2ccccc2)c2cc3ccccc3nc21 was read as AmpC inh no det 70.9%.
`COc1ccc(C(=O)N2CCC3(CCCN(c4ncccn4)C3)CC2)cc1` gave AmpC inh no det 71.8%.
For CC(=O)Nc1nc(=S)ss1 the results were AmpC inh no det -18.4%.
Screening O=C(CN1C(=O)COc2ccccc21)N1CCc2ccccc21 returned AmpC inh no det 10.7%.
For COc1ccc(CCNCc2csc3nc4ccccc4n23)cc1OC the results were AmpC inh no det 12.8%.
For O=C(NCc1ccc2c(c1)OCO2)c1ccc(C2SCC(=O)N2Cc2ccco2)cc1 (stereo not drawn) the results were AmpC inh no det -15.3%.
`O=C(c1n[nH]c2c1CCCC2)n1ccnc1` gave AmpC inh no det -5.2%.
`CCCCN(CCO)CCCC` gave AmpC inh no det -5.8%.
For O=C(Nc1ccc(Cl)cc1)N1CC=CCC1 the results were AmpC inh no det -4.0%.
Cc1cccc(Nc2ccccc2C(=O)O)c1C was read as AmpC inh no det -19.7%[12.8 µM].
For Cc1ccc(C2CC(c3ccc(Cl)cc3)n3nc(N)nc3N2)cc1 (stereo not drawn) the results were AmpC inh no det inconclusive.
Screening CCOc1cccc2cc(C(=O)NCc3cccnc3)c(=O)oc12 returned AmpC inh no det 9.2%.
For CCCCOc1ccc(-c2ncc(C(=O)O)c(C)n2)cc1 the results were AmpC inh no det -13.9%.
CC(C)(C)NC(=O)Cn1c(=O)oc2ccc(Cl)cc21 was read as AmpC inh no det -0.7%.
Screening CCOC(=O)C(O)(CCC(O)(C(=O)OCC)C(=O)OCC)C(=O)OCC returned AmpC inh no det 11.3%.
For CCN1CCN(c2ccc(-n3c(C)nc4c(cnn4-c4ccccc4Cl)c3=O)cc2)CC1 the results were AmpC inh no det 30.6%.
Cn1c(SCC(=O)OCC(=O)c2ccccc2)nnc1-c1cccs1 was read as AmpC inh no det 24.0%.
Screening Cc1ccc(NC(=O)CSc2nnc(Cn3c(=O)sc4ccccc43)n2C)cc1Cl returned AmpC inh no det 3.98µM*[single pt active].
For N#Cc1ccsc1NC(=O)c1ccccn1 the results were AmpC inh no det -8.6%.
Screening N#Cc1nc(-c2cccc3ccccc23)oc1N1CCCCC1 returned AmpC inh no det -5.0%.
N#Cc1ccc(CSc2nnc(-c3cccnc3)n2-c2ccccc2)cc1 was read as AmpC inh no det 29.2%.
For COc1ccc2c(c1)C(C)=CC(C)(C)N2C(=O)CSc1nnc(-c2ccc(C)cc2)o1 the results were AmpC inh no det 38.5%.
Screening Cc1cc(C)nc(NC(=NCCc2c[nH]c3ccccc23)NC(=O)c2ccco2)n1 returned AmpC inh no det 43.7%.
`O=C1OC(Nc2nccs2)c2ccccc21` (stereo not drawn) gave AmpC inh no det -10.4%.
Screening CC(=O)N1CCC2(CCCN(c3ncccn3)C2)CC1 returned AmpC inh no det 2.0%.
`CCOC(=O)CSC1=Nc2ccccc2C2=NC(CC(=O)NCc3cccs3)C(=O)N12` (stereo not drawn) gave AmpC inh no det 1.0%.
`COc1ccc(C(=O)[C@H]2[C@H]3[C@@H](C(=O)[C@@H]4OC[C@H]3O4)[C@H]3C=Cc4ccccc4N32)c(OC)c1` gave AmpC inh no det 123.9%.
CCOC(=O)CCCNC(=O)c1cncc(Br)c1 was read as AmpC inh no det 12.6%.
`CCN(CC)C(=O)CN(Cc1ccccc1)S(=O)(=O)c1ccc(F)cc1` gave AmpC inh no det 48.4%.
`COc1ccc2cc(C#N)c(SCC(=O)N3CCCC3)nc2c1` gave AmpC inh no det 39.5%.
Cc1ccc(-n2c(SCC(=O)Nc3ccc4cn[nH]c4c3)nnc2-c2ccco2)cc1 was read as AmpC inh no det 9.1%.
CC1Cc2ccccc2N1C(=O)Cc1cccs1 (stereo not drawn) was read as AmpC inh no det -5.5%.
O=C(O)COc1ccc(C(=O)Cc2ccc3c(c2)OCCCO3)c(O)c1 was read as AmpC inh no det -11.2%.
COc1ccc2cccc(N3CCN(CCNC(=O)c4ccc(F)cc4)CC3)c2c1 was read as AmpC inh no det 50.1%.
Cc1cccc(N2CCN(C(c3ccccc3)c3nnnn3CC3CCCO3)CC2)c1C (stereo not drawn) was read as AmpC inh no det 121.6%.
CCOc1cc(N2CCOCC2)c(OCC)cc1NC(=O)CN1C(=O)NC(Cc2ccccc2)C1=O (stereo not drawn) was read as AmpC inh no det 70.4%.
For COc1ccc(N(CC(=O)Nc2cccc(C(C)=O)c2)S(C)(=O)=O)cc1OC the results were AmpC inh no det 19.9%.
`c1cncc(-c2cccnc2)c1` gave AmpC inh no det -9.6%.
Screening O=C(NC1=NCCS1)c1ccc(-c2ccc(Cl)cc2)o1 returned AmpC inh no det -9.3%.
`Cc1nn(C)c(C)c1NC(=O)c1ccc(S(=O)(=O)N(C)C)cc1` gave AmpC inh no det -0.5%.
For Cc1c(C)c2c(c(C)c1O)CC[C@@](C)(CN1CCN(c3cc(N4CCCC4)nc(N4CCCC4)n3)CC1)O2 the results were AmpC inh no det 38.3%.
`O=C(COc1ccc(Cl)cc1Cl)Nc1ccc(Cl)cn1` gave AmpC inh no det -15.3%.
Screening O=C1COc2ccc(C(=O)CSc3nnnn3-c3ccccc3)cc2N1 returned AmpC inh no det -12.4%.
For COC(=O)c1c[nH]n2c(=O)c(Cc3ccc(F)cc3Cl)c(C)nc12 the results were AmpC inh no det -17.4%.
`COc1ccccc1-c1nc(NCCNC(C)=O)c2ccccc2n1` gave AmpC inh no det -8.3%.
Screening Cn1c(=O)[nH]c(=O)c2c1nc(SCCN1CCCCC1)n2Cc1ccccc1 returned AmpC inh no det -4.9%.
`CC1=C(C#N)C(C)C2=C(CC(C)(C)CC2=O)N1` (stereo not drawn) gave AmpC inh no det -5.1%.
COc1cccc(OC)c1C(=O)N1CCN(Cc2ccccc2C(F)(F)F)CC1 was read as AmpC inh no det 98.6%.
COC(=O)Cn1cc(C(=O)c2cccs2)c2ccccc21 was read as AmpC inh no det -1.4%.
For CCCOc1ccc(C2/C(=C(/O)c3ccc(F)cc3)C(=O)C(=O)N2CCCN(C)C)cc1 (stereo not drawn) the results were AmpC inh no det 28.2%.
Cc1ccc(-c2nc(C3CCCN(S(=O)(=O)c4ccc(C(F)(F)F)cc4)C3)no2)cc1 (stereo not drawn) was read as AmpC inh no det -14.5%.
`COP(=O)(OC)[C@@H](O)C(Cl)(Cl)Cl` gave AmpC inh no det -3.3%[12.8 µM].
CN1/C(=C\C(=O)c2ccco2)C(C)(C)c2ccccc21 was read as AmpC inh no det 4.1%.
Screening CCOc1cc(S(=O)(=O)N(CC)CC)ccc1Br returned AmpC inh no det 4.5%.
`Cc1nn(-c2ccc(Cl)cc2)c2sc(C(=O)N3CCN(C(=O)c4ccco4)CC3)cc12` gave AmpC inh no det 42.9%.
Cc1nc2cc(NC(=O)NCCC3=CCCCC3)ccc2o1 was read as AmpC inh no det 3.6%.
For O=C(OCc1cc(=O)n2cc(Br)ccc2n1)C1COc2ccccc2O1 (stereo not drawn) the results were AmpC inh no det 20.7%.
O=C1CSC(=S)N1c1cccnc1 was read as AmpC inh no det -0.3%.
CCN(Cc1nc2cc(OC)c(OC)cc2c(=O)[nH]1)C(=O)c1ccc(S(=O)(=O)N(C)C)cc1 was read as AmpC inh no det 34.3%.
For CCCCC(=O)Nc1ccc(NC(=O)CCCC)nc1 the results were AmpC inh no det -4.5%.
Screening COCCOC(=O)c1[nH]c2c(c1C)C(=O)CC(c1ccco1)C2 (stereo not drawn) returned AmpC inh no det 19.8%.

From PubChem
